Screens deposited in PubChem BioAssay by National Center for Advancing Translational Sciences (NCATS).
Lassa entry inh: blocks Lassa virus binding to or entry into cells; AID 540256; Lassa virus pseudotype entry inhibition, cell reporter; control for the full effect not named in the record; Potency, µM (doses to about 37.9 µM), inactives show at the highest dose activity change, negative = inhibition, actives largely listed as inhibitors; hit rate 1.2% among 300,000; active means well fitted inhibition curve with a large enough effect; inconclusive means small, poorly fitted or top-dose-only effect, or effect the other way; inactive means flat fitted curve, though single readings scatter; tested in HEK293 cells; also: % is scaled to controls: 0 for no effect and ±100 for the full control effect; nearly all actives have a fitted effect of over 50% in size; luciferase read-out
Cruzain inh Det: inhibitors of Trypanosoma cruzi cruzain with detergent; P25779; purified cruzain, Z-FR-AMC fluorescence, 0.01% Triton; Potency, µM, for the others: max response, negative = inhibition, hits mostly inhibitors; hit rate 0.43% among 200,000; AID 1478;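 also: plate controls were neutral wells for no effect and buffer without enzyme for full effect; nearly all actives have a fitted effect of over 40% in size; top concentration of the series not given in the record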
Target sequence (P25779 123-467 limits assumed): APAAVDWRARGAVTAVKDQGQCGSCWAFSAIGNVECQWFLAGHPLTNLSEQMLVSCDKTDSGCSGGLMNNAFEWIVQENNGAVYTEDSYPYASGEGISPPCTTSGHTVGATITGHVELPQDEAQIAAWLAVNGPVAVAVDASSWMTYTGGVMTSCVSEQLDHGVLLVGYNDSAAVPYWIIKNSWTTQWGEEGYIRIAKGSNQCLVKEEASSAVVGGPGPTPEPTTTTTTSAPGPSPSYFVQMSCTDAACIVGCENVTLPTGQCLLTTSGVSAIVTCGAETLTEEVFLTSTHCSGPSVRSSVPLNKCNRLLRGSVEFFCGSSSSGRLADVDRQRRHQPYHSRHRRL
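In this qHTS format, compounds are incubated with 1.5 nM cruzain for 15 min at room temperature before 2 uM Z-FR-AMC is added. Release of AMC is followed at 360/450 nm, and progress is taken as the 60 s fluorescence difference.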
2A StopGo: lowers the luciferase signal of an FMDV 2A StopGo reporter; human cells with a luciferase reporter of 2A StopGo recoding; control for the full effect not named in the record; Potency, µM (top dose mostly 57.9 µM), for the others: at the top dose signal change, negative = less light; hit rate 1.2% among 410,000; active = well fitted falling curve with a large enough effect; inconclusive = small, poorly fitted or top-dose-only effect; inactive = no such curve, though single readings can be large or run the other way; tested in HEK293T cells; also: % is scaled to controls: 0 for no effect and ±100 for the full control effect; nearly all actives have a fitted effect of over 45% in size; luciferase light after 4 h
Marburg entry inh: Marburg virus entry inhibition. Marburg virus pseudotyped entry inhibition, cell reporter; control for the full effect not named in the record; about a third of the inactives were read at about 46 µM. Potency, µM (titrated, usually from 37.8 µM), inactives show at the top dose activity change, negative = inhibition, hits mostly inhibitors. hit rate 1.8% among 300,000. AID 540276; active = well fitted inhibition curve with a large enough effect; inconclusive = small, poorly fitted or top-dose-only effect, or effect the other way; inactive = flat fitted curve, though single readings scatter; tested in HEK293 cells; about a fifth of its hits are not listed in these tables; also: % is scaled to controls: 0 for no effect and ±100 for the full control effect; luciferase read-out
NS1 function inh: influenza NS1 inhibition; S. cerevisiae slowed by influenza A NS1, growth recovery by OD600; Potency, µM (series often up to 46.1 µM), inactives show at the highest dose activity, positive = more growth; hit rate 0.4% among 270,000; active means well fitted rising curve with a large enough effect; inconclusive means small, poorly fitted or top-dose-only effect; inactive means no such curve, though single readings can be large or run the other way; also: nearly all actives have a fitted effect of over 50% in size
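Compounds were scored for reversing the slow growth caused by influenza A NS1 in S. cerevisiae, measured by optical density at 600 nm. Assay medium contained 2% galactose at pH 6.0; NS1-free yeast of the same strain were the positive control.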
Cruzain noTriton: inhibitors of Trypanosoma cruzi cruzain without detergent; Potency, µM, for inactives: max response, negative = inhibition, hits mostly inhibitors; hit rate 2.3% among 200,000; purified cruzain, Z-FR-AMC fluorescence, no detergent; P25779;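 also: plate controls were enzyme without inhibitor for no effect and buffer without enzyme for full effect; nearly all actives have a fitted effect of over 40% in size; top concentration of the series not given in the record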
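Purified cruzain at 1.5 nM, pre-incubated 15 min with compound at room temperature in 100 mM sodium acetate pH 5.5, 5 mM DTT, 0.00005% Triton X-100. Reaction started with 2 uM Z-FR-AMC; AMC fluorescence increase over 60 s gives rate.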
SARS PLP yeast: SARS-CoV PLP inhibition in yeast; hit rate 0.19% among 330,000; AID 485353; Potency, µM (doses to about 32.9 µM), for inactives: top-dose activity, positive = growth rescue; S. cerevisiae expressing SARS-CoV PLpro, growth rescue; control for the full effect not named in the record; active means well fitted rising curve with a large enough effect; inconclusive means small, poorly fitted or top-dose-only effect; inactive means no such curve, though single readings can be large or run the other way; also: 0% is about no effect; nearly all actives have a fitted effect of over 55% in size; growth read by luminescence after 48 h
RE007 growth inh: less growth of the S. pombe RE007 Vpr strain; S. pombe RE007 Vpr strain, BacTiter-Glo ATP luminescence, 24 h; control for the full effect not named in the record; Potency, µM (top dose mostly 92.2 µM), for the others: at the highest dose activity change, negative = less growth; hit rate 0.21% among 360,000; AID 651644; active = well fitted falling curve with a large enough effect; inconclusive = small, poorly fitted or top-dose-only effect; inactive = no such curve, though single readings can be large or run the other way;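 also: % is scaled to controls: 0 for no effect and ±100 for the full control effect; nearly all actives have a fitted effect of over 50% in size; the assay follows cell death caused by Vpr and the record does not say whether a fall means rescue or toxicity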
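Fission yeast strain RE007, carrying one chromosomally integrated HIV-1 vpr copy, was seeded at OD 0.01 in PMG+AL medium with 23 nL pinned compound. After 24 h at 30 °C and 99% humidity, viability was read by BacTiter-Glo luminescence.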
An asterisk follows results filed as active; ? = inconclusive; / = not tested or not shown; & = joins results of further samples; [ ] = remark or other dose. Unless noted, calls follow the shape of the dose curve; as a rule, active = well fitted curve in the direction sought with a large enough effect; inconclusive = small, poorly fitted or top-dose-only effect, or another doubt; inactive = no such curve, though single readings can be large; an effect the other way counts as inactive or inconclusive. Potency is read from the fitted curve at half-maximal effect.

Preview:
#	smiles	Lassa entry inh	Cruzain inh Det	2A StopGo	Marburg entry inh	NS1 function inh	Cruzain noTriton	SARS PLP yeast	RE007 growth inh
1	NC(=O)[C@@H]1CCCNc2c(F)cc([N+](=O)[O-])cc2C(=O)N[C@@H](CCC(=O)O)C(=O)N[C@@H](CO)C(=O)N1	-4%	-7.4%	-1%	3%	-21%	-6%	16%	-1%
2	Cc1nc2ccccn2c1C(=O)NNC(=S)Nc1ccccc1	27%[46.1 µM]	/	1%	27%[46.1 µM]	2%	/	1%	-15%
3	Cc1cc(C(=O)CN2C(=O)NC(C)(c3ccccc3)C2=O)c(C)n1CC1CCCO1 (stereo not given)	7%	-2.5%	26%	?	4%	3%	-13%	5%
4	O=C(CSc1nnc(CCCOc2ccc(Cl)cc2Cl)o1)Nc1ccc(C(=O)O)cc1	4%	-2.1%	59%[activator]	-11%	12%	23%	8%	9%

The listing (from the top)
#	smiles	Lassa entry inh	Cruzain inh Det	2A StopGo	Marburg entry inh	NS1 function inh	Cruzain noTriton	SARS PLP yeast	RE007 growth inh
1	NC(=O)[C@@H]1CCCNc2c(F)cc([N+](=O)[O-])cc2C(=O)N[C@@H](CCC(=O)O)C(=O)N[C@@H](CO)C(=O)N1	-4%	-7.4%	-1%	3%	-21%	-6%	16%	-1%
2	Cc1nc2ccccn2c1C(=O)NNC(=S)Nc1ccccc1	27%[46.1 µM]	/	1%	27%[46.1 µM]	2%	/	1%	-15%
3	Cc1cc(C(=O)CN2C(=O)NC(C)(c3ccccc3)C2=O)c(C)n1CC1CCCO1 (stereo not given)	7%	-2.5%	26%	?	4%	3%	-13%	5%
4	O=C(CSc1nnc(CCCOc2ccc(Cl)cc2Cl)o1)Nc1ccc(C(=O)O)cc1	4%	-2.1%	59%[activator]	-11%	12%	23%	8%	9%
5	CCn1c(SCC(=O)c2cc(C)ccc2C)nc2cc(S(=O)(=O)N3CCOCC3)ccc21	-15%	?	-27%	?	9%	11%	16%	/
6	CCCc1cc(=O)oc2cc(C)cc(OCC(=O)N3CCC(C(=O)O)CC3)c12	/	/	-7%	/	-3%	/	3%	12%
7	COc1ccc(NC(=O)C2CCCN2S(=O)(=O)c2ccc(Cl)cc2)cc1 (stereo not given)	-6%	/	-8%	?	3%	/	2%	4%
8	Cc1nn(-c2ccccc2)c2sc(C(=O)Nc3cccc(Cl)c3)cc12	-24%[46.1 µM]	-1.0%	-21%	2%[46.1 µM]	/	?	/	/
9	Cc1sc(NC(=O)c2ccco2)c(C(c2ccncc2)N2CCOCC2)c1C (stereo not given)	-6%	1.1%	-19%	?	-14%	22%	4%	-19%
10	CC(=O)c1ccc(N2C(=O)CC(N3CCN(S(=O)(=O)c4cc(C)ccc4C)CC3)C2=O)cc1 (stereo not given)	-2%[46.1 µM]	/	-2%	-16%[46.1 µM]	/	/	-4%	-4%
11	CN(C)c1ccc(P(=O)(OCc2ccccc2)C(O)c2cccnc2)cc1 (stereo not given)	?	-3.2%	15%	19%	0%	2%	4%	1%
12	COc1ccc(CNC(=O)c2csc(Cc3ccc(OC)cc3)n2)cc1	?	-4.6%	0%	0%	-30%	12%	-9%	-1%
13	C=CCOC(=O)C1=C(C)Nc2ncnn2C1c1cccs1 (stereo not given)	-2%	2.5%	-17%	-21%	-1%	-6%	-9%	2%
14	COC(=O)c1sc(NC(=O)c2ccoc2C)nc1C	7%	-4.9%	43%[activator]	23%&23%	2%	1%	-27%	-1%
15	Cn1cc(S(=O)(=O)N2CCCCCC2)cc1C(=O)N1CCN(c2cccc(C(F)(F)F)c2)CC1	-18%[46.1 µM]	-15%	0%	/	/	?	/	/
16	CC(=O)Nc1ccc(NC(=O)c2ccc(NS(=O)(=O)c3cc(C(C)(C)C)ccc3C)cc2)cc1	-10%	/	22%	-22%[46.1 µM]	0%	/	1%	-4%
17	COc1ccc(OCC(O)Cn2c(Br)nc3c2c(=O)[nH]c(=O)n3C)cc1 (stereo not given)	-25%	2.3%	?	-15%&-15%	-22%	3%	0%	1%
18	COc1ccc(S(=O)(=O)Nc2ccc(S(=O)(=O)NCC3CCCO3)cc2)cc1 (stereo not given)	-3%[46.1 µM]	/	6%	-16%[46.1 µM]	11%	/	-2%	-3%
19	CCOC(=O)c1c(C)n(Cc2ccccc2)c2ccc(O)cc12	?	/	?	-26%[46.1 µM]	1%	/	0%	10%
20	COc1ccc(NC(=O)C(NC(=O)CNC(C)=O)c2ccc(C)cc2)cc1 (stereo not given)	-1%	2.9%	8%	7%	3%	1%	8%	19%

Reprinted from the part before: 2 compounds, followed by the next part.
#	smiles	Lassa entry inh	Cruzain inh Det	2A StopGo	Marburg entry inh	NS1 function inh	Cruzain noTriton	SARS PLP yeast	RE007 growth inh
19	CCOC(=O)c1c(C)n(Cc2ccccc2)c2ccc(O)cc12	?	/	?	-26%[46.1 µM]	1%	/	0%	10%
20	COc1ccc(NC(=O)C(NC(=O)CNC(C)=O)c2ccc(C)cc2)cc1 (stereo not given)	-1%	2.9%	8%	7%	3%	1%	8%	19%
21	COc1cc(C(=O)Nc2cc3c(cc2C)n(C)c(=O)c(=O)n3C)cc(OC)c1OC	15%[46.1 µM]	-3.5%	-12%	25%[46.1 µM]	/	4%	/	/
22	CC(/C=N/Nc1ccc2nncn2n1)=C\c1ccccc1	/	/	14%	/	-57%	/	-8%	18%
23	CCc1noc(C)c1C(=O)N(CCCOC)c1c(N)n(Cc2ccccc2)c(=O)[nH]c1=O	21%	/	34%[activator]	4%[46.1 µM]	/	/	-2%	2%
24	COc1ccc(NC(=O)C2CC(=O)N(c3cccc(C)c3C)C2)cc1 (stereo not given)	5%	4.5%	16%	0%	-6%	4%	10%	12%
25	CCCNC(=O)Cn1nc(-c2ccc(C)c(C)c2)c2cnc3ccc(OC)cc3c21	0%[46.1 µM]	-1.7%	15%	/	/	-7%	/	/
26	CC(OC(=O)COc1ccc(C#N)cc1)C(=O)c1ccccc1 (stereo not given)	3%	/	-3%	?	/	/	5%	-3%
27	COC(=O)c1cc(NS(=O)(=O)c2cccs2)cc(NS(=O)(=O)c2cccs2)c1	-5%	/	15%	-9%[46.1 µM]	/	/	-2%	0%
28	O=C(O)C1CCCN1c1nc(-c2ccc(Cl)c(Cl)c2)cc(C(F)(F)F)n1 (stereo not given)	?	/	-26%	0.5µM*	/	/	-6%	5%
29	COc1ccc(Cn2nnc(C(=O)Nc3ccc4c(c3)OCCO4)c2N)cc1Br	/	/	15%	/	11%	/	6%	3%
30	CCCC(=O)n1nc(-c2ccco2)nc1N	23%	7.5%	-25%	5%	3%	-1%	-3%	25%
31	[O-][n+]1cccc(C(O)c2ccccc2)c1 (stereo not given)	/	/	-12%	/	6%	/	3%	6%
32	CC(C)(C)NC(=O)C(c1ccc(F)cc1)N(Cc1ccco1)C(=O)CCC(=O)Nc1nccs1 (stereo not given)	?	/	-18%	?	-3%	/	2%	9%
33	CCCC(=O)Nc1cccc(S(=O)(=O)N(C)c2ccccc2)c1	?	-1.1%	-17%	4%	2%	-6%	-7%	8%
34	C/C(=C\C(=O)c1ccc(Br)cc1)NCc1ccc(C)cc1	-11%	-6.8%	?	6%	-10%	-10%	14%	2%
35	C=CCn1c(N)c(C(=O)NCC2CCCO2)c2nc3ccccc3nc21 (stereo not given)	?	-14%	/	?	-10%	?	1%	-2%
36	Cc1c(O)ccc2c(CC(=O)N[C@@H](Cc3ccc(O)cc3)C(=O)O)cc(=O)oc12	29%[46.1 µM]	/	-3%	-8%[46.1 µM]	-2%	/	2%	6%
37	O=C1/C(=C/c2ccc([N+](=O)[O-])cc2)C=C(c2ccccc2)N1c1ccccc1	3%	-2.0%	/	2%	19%	13µM*	2%	6%
38	COc1cc(NC(=O)c2cccs2)c(OC)cc1NC(=O)Cc1ccccc1	/	/	-1%	1%[46.1 µM]	-7%	/	0%	-21%
39	CC1(C)c2[nH]c3ccccc3c2C[C@H]2C(=O)N(CCCO)CC(=O)N21	/	/	3%	/	4%	/	-1%	2%
40	Cc1ccc(C(=O)COC(=O)CCCC(=O)NC2CCCCC2)cc1[N+](=O)[O-]	-2%	-1.4%	0%	4%	-1%	-8%	4%	8%
41	Cc1ccccc1Nc1nc(Cl)c(C=O)s1	/	/	-13%	/	-4%	/	-12%	-9%
42	Cc1cc(NC(=O)c2ccc3c(c2)OCCO3)cc(-c2nc3ccccc3o2)c1O	8%[46.1 µM]	0.8%	2%	2%[46.1 µM]	/	-22%	/	/
43	COc1ccc(-n2c(Cc3cc(=O)[nH]c(=O)[nH]3)nnc2SCc2ccccc2)cc1	/	-1.9%	-24%	/	4%	-3%	1%	-8%
44	CC(C)(C)C(=O)O/N=C1/C(=O)N(c2ccccc2)c2ccccc21	13%	1.6µM*	-28%	3%	-1%	20µM*	-7%	-2%
45	COc1ccc(CNC(=O)CC(C)CC2=NS(=O)(=O)c3ccccc3N2)cc1 (stereo not given)	25%[46.1 µM]	1.0%	-16%&0%	/	7%	10%	3%	-19%
46	COc1ccc(CNC(=O)CSCc2cnn(-c3ccccc3)c2-n2cccc2)cc1	-27%	-6.2%	?	-3%	-59%	0%	-11%	-4%
47	Cc1ccc(Cn2c(=N)c(C(=O)NCC3CCCO3)cc3c(=O)n4ccccc4nc32)cc1 (stereo not given)	?	/	-2%	?	10%	/	0%	-5%
48	Cc1ccc(Cl)cc1NC(=O)CN1C(=O)COc2ccc(S(=O)(=O)N3CCOCC3)cc21	23%[46.1 µM]	0.5%	8%&5%	/	-6%	10%	4%	16%
